Screening results (PubChem)
ClpP mod = qHTS Assay for Activators of ClpP; Potency, µM (top dose mostly 57.5 µM), for inactives: at the highest dose activity change, negative = active; purified B. subtilis ClpP, FRET peptide cleavage, 20 min; ATP-dependent Clp protease proteolytic subunit (Bacillus subtilis (strain 168)), P80244; 340,000 tested, 1.9% active; active = well fitted falling curve with a large enough effect; inconclusive = small, poorly fitted or top-dose-only effect; inactive = no such curve, though single readings can be large or run the other way; also: potency is read from the fitted curve at half-maximal effect; the source files actives as falling curves though it sought activators and does not explain the sign; nearly all actives have a fitted effect of over 65% in size; many hits overshoot -100%
Target sequence (P80244 whole entry, looked up): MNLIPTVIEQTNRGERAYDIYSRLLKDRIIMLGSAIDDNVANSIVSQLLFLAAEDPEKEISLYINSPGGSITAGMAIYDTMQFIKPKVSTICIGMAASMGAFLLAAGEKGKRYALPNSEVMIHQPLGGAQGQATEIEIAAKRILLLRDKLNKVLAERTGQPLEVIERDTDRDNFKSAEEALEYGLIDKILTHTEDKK
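Buffer: 100 mM Tris/HCl pH8, 100 mM KCl, 0.05% low protease BSA, 2.5% glycerol, 0.01% Tween-20. ClpP 10 microg/mL final; 20 min RT; delta FRET normalized to ADEP and DMSO controls.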
TRPML1 ag = agonists of human TRPML1 channel; AID 624414; TRPML1-expressing cells, Ca2+ dye fluorescence, FDSS; host cell line not named in the record; reference of the full effect not given here; 410,000 tested, 0.12% active; activation, % (test concentration not listed); in the data active = activation above about 50%; inconclusive = about 30% to 50%; inactive = below about 30%; also: 0% is about no effect; the text of the record puts the active cut at 80%
Target sequence (Q9GZU1 whole entry, looked up): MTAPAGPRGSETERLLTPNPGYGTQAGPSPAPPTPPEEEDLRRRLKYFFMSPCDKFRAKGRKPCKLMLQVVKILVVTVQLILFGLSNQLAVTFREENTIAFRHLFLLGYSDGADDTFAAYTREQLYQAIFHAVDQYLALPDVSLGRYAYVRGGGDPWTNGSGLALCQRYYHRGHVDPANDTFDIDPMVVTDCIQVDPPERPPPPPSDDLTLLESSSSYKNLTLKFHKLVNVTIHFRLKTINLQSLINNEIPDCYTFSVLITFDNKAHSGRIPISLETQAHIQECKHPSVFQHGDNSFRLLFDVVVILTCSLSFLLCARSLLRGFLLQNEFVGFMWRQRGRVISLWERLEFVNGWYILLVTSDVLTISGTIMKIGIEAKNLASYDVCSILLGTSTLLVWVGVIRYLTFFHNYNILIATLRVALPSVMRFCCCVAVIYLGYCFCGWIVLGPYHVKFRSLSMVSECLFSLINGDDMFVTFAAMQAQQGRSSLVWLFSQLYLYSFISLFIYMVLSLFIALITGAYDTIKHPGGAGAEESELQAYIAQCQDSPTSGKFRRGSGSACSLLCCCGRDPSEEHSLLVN
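Calcium fluorescence on an FDSS kinetic reader gave the read-out. Tet-induced TRPML1-DL cells were plated overnight, dye-loaded (Ca8 with quencher, 45-90 min, room temperature, dark), then read 110 s after compound addition, and again 110 s after 4uM final 54-4 (EC80).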
The depositor's hits bear a star; ? = inconclusive.

Sequence of screens: ClpP mod, TRPML1 ag
- CS(=O)(=O)Nc1cccc(NC(=O)c2cccc3c(-c4ccc(F)c(F)c4)coc23)c1
 : 4.4%, -0.4
- NC(=O)c1cccc(-c2ccnc3c2CC(C(=O)NCC2CC2)O3)c1 (stereo not given)
 : -4.4%, -0.3
- O=S1(=O)N[C@@H](Cc2ccccc2)COc2cccc(N3CCN(Cc4ccccc4F)CC3)c21
 : -9.8%, -0.4
- COC(=O)c1ccc2nc(-c3ccc(C)cc3)c(Cc3cccc(F)c3)n2c1
 : ?, 1.2
- CC(N)c1csc(NC(=O)c2cc(C(C)(C)C)nn2Cc2ccccc2)n1 (stereo not given)
 : -1.0%, -0.3
- CCCS(=O)(=O)NC(=O)C1(C)CCCN(C(=O)c2ccccc2)C1 (stereo not given)
 : 1.9%, -0.2
- COC(=O)[C@@]1(Sc2ccc(C)cc2)CC(=O)N[C@@H]1c1ccc(C(F)(F)F)cc1
 : 4.1%, 1.9
- COC(=O)Cc1ccc(OC2(C)CCN(Cc3ccccc3)C2)cc1 (stereo not given)
 : 0.7%, 0.0
- COc1cccc(-c2cccc(-c3nc(C(=O)NCCCN4CCOCC4)cc4c3[C@H](CCO)N(S(=O)C(C)(C)C)C4)c2)c1 (stereo not given in full)
 : 0.4%, 0.2
- COC(=O)CCCC[C@@H]1O[C@H](CCc2ccccc2)Cc2[nH]c(=S)[nH]c(=O)c21
 : 0.5%, -0.7
- CCCCNC(=O)C1(C)CCN1C(=O)c1cccnc1Oc1ccccc1 (stereo not given)
 : -0.4%, -0.7
- Cc1cnc(C(=O)N(c2ccc(N3CCOCC3)cc2)C2C(=O)Nc3ccccc3N=C2c2ccc3c(c2)OCO3)cn1 (stereo not given)
 : -1.3%, -0.5
- O=S1(=O)CC(N2CC=CC2)CN1C1CCCCC1 (stereo not given)
 : -1.2%, -0.6
- CCc1ccc(OCCCn2c(CCCNC(=O)C3CCCCC3)nc3ccccc32)cc1
 : 1.4%, -0.8
- COc1ccc(OC)c(S(=O)(=O)NC(=O)C2(C)CCN2C(=O)Cc2ccccc2)c1 (stereo not given)
 : -8.9%, 0.2
- CCN(CC)CCC12CC(C)OC1=Nc1ccccc1NC2=O (stereo not given)
 : -0.4%, -0.1
- COc1cc(OC)cc(C2=Cc3ccc(OC)cc3C(CC(C)=O)N2c2ccc(C#CCCO)cc2)c1 (stereo not given)
 : 4.8%, -0.4
- CC(C)(C)OC(=O)N1C(=O)[C@](OC(=O)c2ccccc2)(c2ccc(F)cc2)c2ccccc21
 : -1.2%, -0.9
- CS(=O)(=O)c1ccc(C(=O)OCC(=O)Nc2ccc(OC(F)(F)F)cc2)cc1[N+](=O)[O-]
 : 1.3%, -0.5
- c1coc(-c2ccc3nncn3c2)c1
 : ?, 1.0
- CCCCn1nnnc1C(c1cc2ccccc2o1)N1CCN(CCN(C)C)CC1 (stereo not given)
 : 1.2%, 0.1
- CC1(C)C=Cc2c(ccc(C(=O)/C=C/c3ccccc3)c2O)O1
 : -7.6%, 19
- CCCCOCCCNC(=O)C[C@@H]1C[C@@]2(C(=O)OC)CCCCC=C2N(Cc2ccc(Cl)cc2Cl)C1=O
 : 0.0%, 1.1
- CC1(C)OC(=O)C2=C(C[C@@H](C3CC3)O[C@@H]2C2CC2)O1
 : -0.2%, -0.7
- CCCNC(=O)c1cc(C2CCCCN2C(=O)c2ccc(C(C)C)cc2)on1 (stereo not given)
 : 0.7%, -0.7
- CCCCc1c(-c2ccccc2OC)ncn1C1CCCC1
 : -2.3%, -0.4
- COCCN1C[C@@H](CO)O[C@@H](n2cnc3c(NCc4cc(OC)c(OC)c(OC)c4)ncnc32)C1
 : 0.5%, -0.3
- OC(c1ccc(Cl)c(F)c1)c1ncc(-c2ccccc2Cl)[nH]1 (stereo not given)
 : 1.0%, -0.3
- CC(=O)NC(c1ccccc1)c1nc(-c2cccc(C(C)C)c2)cs1 (stereo not given)
 : 1.1%, -0.1
- Fc1ccc2[nH]c3c(NCc4ccco4)ncnc3c2c1
 : 4.3%, -0.3
- Cc1nc2ccccc2nc1C
 : -0.9%, -0.1
- CC[N+]1(CC(=O)c2ccc(Br)cc2)CCCCC1
 : 0.7%, 0.0
- CC(C)(C)OC(=O)N1CCC[C@H]1C(=O)NCc1ccc(F)cc1F
 : -0.8%, -0.2
- CC(C)CN(CC(C)C)c1ccc(/C=C/c2nc3ccccc3s2)cc1
 : -3.2%, 1.6
- O=C(NCc1ccc(F)cc1)c1cc(C2CCCCN2C(=O)CCc2ccccc2)on1 (stereo not given)
 : -1.1%, 0.1
- CCc1nc2c(OCc3ccccc3C(=O)OC)cccn2c1N(C)C(=O)c1cccc(OC)c1
 : -1.8%, -1.5
- CCc1nc2c(OCc3ccccc3C(=O)OC)cccn2c1N(C)C(=O)Nc1ccccc1OC
 : -3.7%, -0.6
- CCCCn1nnnc1C(CCSC)N1CCN(C/C=C/c2ccccc2)CC1 (stereo not given)
 : 0.6%, -0.1
- CCOc1ccc(CCN2C(=O)C(=O)N([C@@H](Cc3ccc(O)cc3)CN3CCC[C@H]3CN3C(=O)C(=O)NC[C@@H]3Cc3ccc(O)cc3)C[C@@H]2Cc2ccccc2)cc1
 : -2.2%, 0.0
- Cc1ccc2nc(-c3ccc(C)o3)c(Nc3ccccc3)n2c1
 : 4.3%, -0.9
- CC1(C(=O)NCc2cccc3ccccc23)CCN1C(=O)C1(c2ccccc2)CC1 (stereo not given)
 : 0.6%, -0.9
- CCNC(=O)c1c(NC(=O)c2nc(SC)ncc2Cl)sc2c1CCCC2
 : -0.5%, -0.4
- OC[C@@H]1CN(Cc2ccc(-c3ccccc3)cc2)C[C@H](n2cnc3c(N4CCOCC4)ncnc32)O1
 : -0.7%, 0.3
- COCOc1cccc(CN2CCC2(C)C(=O)Nc2ccc(C)c(O)c2)c1 (stereo not given)
 : -0.1%, -0.1
- CCOC(=O)C1(C)CCN1C(=O)c1ccc(Cl)nc1 (stereo not given)
 : 2.3%, -0.7
- O=C(Nc1ccc(S(=O)(=O)Nc2nccs2)cc1)c1ccncc1
 : -0.1%, -0.7
- CC1(C(=O)NS(=O)(=O)C2CC2)CCCN(C(=O)Cc2ccc(F)cc2)C1 (stereo not given)
 : 0.3%, -0.3
- COc1cccc(-c2cnc(C(O)c3ccc(C(C)(C)C)cc3)[nH]2)c1 (stereo not given)
 : 1.3%, 0.0
- O=C(NCC1CC1)C1Cc2c(-c3ccc4c(c3)OCO4)ccnc2O1 (stereo not given)
 : 4.5%, -1.0
- CCc1nc2ccc(C(=O)N3CCN(C(C)=O)CC3)cn2c1N(CC)C(=O)NCCc1ccccc1
 : -4.3%, -0.2
- CCN(CC)C(=O)c1cccc(-c2csc(C(O)c3ccc(F)cc3)n2)c1 (stereo not given)
 : 1.4%, -0.9
- COCCN1C[C@@H](CO)O[C@@H](n2cnc3c(N4CCN(CCO)CC4)ncnc32)C1
 : -1.4%, -0.1
- CC(C)(C)Nc1c(C2CCNCC2)nc2c(OCc3ccccc3)cccn12
 : -7.8%, -0.7
- COc1ccc(-c2ccccc2)cc1NC(=O)[C@@H]1O[C@H](CO)[C@@H](O)[C@H]1O
 : 0.2%, -0.2
- CCC(c1nnnn1-c1ccc2c(c1)OCCO2)N1CCN(c2cccc(C)c2C)CC1 (stereo not given)
 : -10.0%, -0.9
- CCOC(=O)[C@]12CCC=C1N(CCC1=CCCCC1)C(=O)[C@H](CC(=O)NCc1cccs1)C2
 : -4.6%, -0.5
- c1ccc2c(C(c3nnnn3-c3ccc4c(c3)OCCO4)N3CCCC3)ccnc2c1 (stereo not given)
 : -2.3%, -0.7
- CC1(C(=O)NS(=O)(=O)c2ccc(F)cc2F)CCN1C(=O)c1ccccc1 (stereo not given)
 : 0.3%, -0.3
- Cc1ccc(F)c(S(=O)(=O)NC(=O)C2(C)CCN2C(=O)C/C=C/c2ccccc2)c1 (stereo not given)
 : -2.1%, -0.2
- Cc1cc(F)cc(-c2cc(C(=O)NCc3ccc(C(F)(F)F)cc3)[nH]n2)c1
 : 4.2%, 0.4

Shown as labelled records: 4 of the compounds above
CC1(C(=O)NS(=O)(=O)C2CC2)CCCN(C(=O)Cc2ccc(F)cc2)C1 (stereo not given)
  ClpP mod: 0.3%
  TRPML1 ag: -0.3
CCC(c1nnnn1-c1ccc2c(c1)OCCO2)N1CCN(c2cccc(C)c2C)CC1 (stereo not given)
  ClpP mod: -10.0%
  TRPML1 ag: -0.9
CCNC(=O)c1c(NC(=O)c2nc(SC)ncc2Cl)sc2c1CCCC2
  ClpP mod: -0.5%
  TRPML1 ag: -0.4
CCc1nc2ccc(C(=O)N3CCN(C(C)=O)CC3)cn2c1N(CC)C(=O)NCCc1ccccc1
  ClpP mod: -4.3%
  TRPML1 ag: -0.2

The list continues:
Sequence of screens: ClpP mod, TRPML1 ag
- Cc1nc([N+](=O)[O-])cn1CC(O)c1ccc2c(c1)OCCO2 (stereo not given)
 : -1.3%, -0.7
- O=Cc1cc2c3c(c1)CCCN3CCC2
 : ?, 0.1
- CCOC(=O)c1ccc(S(=O)(=O)N2CCN(c3nc(-c4cccs4)nc4ccccc34)CC2)cc1
 : 10µM*, -0.6
- COc1ccc(-c2nc3cc(C)c(Br)c(C)n3c2Cc2ccsc2)cc1OC
 : -3.4%, -0.1
- CNC(=O)c1cc(-c2cccs2)on1
 : -7.9%, -0.3
- NCc1csc(NC(=O)Nc2cccc(Cl)c2)n1
 : 2.1%, -0.4
- CCc1nc2c(OCC(=O)c3ccc(F)cc3)cccn2c1N(C)C(=O)c1ccccc1F
 : -0.2%, -0.8
- CC(C)CN1CCC1(C)C(=O)Nc1cc(-c2ccccc2)nn1C (stereo not given)
 : -7.9%, -0.2
- COc1cccc(Cn2cnc(-c3ccccc3OC)c2-c2cccs2)c1
 : -21%, -1.1
- CCCCNC(=O)[C@@H]1CC=C[C@@H]2CCN(C3CCCCC3)C(=O)[C@@H]21
 : 1.0%, -0.9
- COC(=O)[C@]12CCCCC=C1N(Cc1ccc(Cl)cc1Cl)C(=O)[C@H](CC(=O)NCCCCc1ccccc1)C2
 : -0.7%, -0.2
- CCc1ccc(C(O)c2ncc(-c3ccc(C)cc3)[nH]2)cc1 (stereo not given)
 : -4.3%, -1.1
- O=C(Nc1ccccc1)OC[C@@H]1C=CS(=O)(=O)N1Cc1ccc(Br)cc1
 : 0.1%, -0.4
- Cc1cc(F)ccc1C(O)c1ncc(-c2cccc3ccccc23)[nH]1 (stereo not given)
 : 4.5%, -0.6
- FC(F)(F)c1ccccc1Cc1c(-c2cccc(Cl)c2)nc2ccc(Br)cn12
 : -8.9%, 2.9
- Cc1ccc(S(=O)(=O)N2CCC(=O)N([C@H](COCc3ccc(Cl)cc3Cl)Cc3ccccc3)CC2)cc1
 : -2.3%, 0.5
- CC1Cc2[nH][nH]c(=O)c2C(C2CCCC2)O1 (stereo not given)
 : 1.1%, -0.1
- COc1ccc(C(O)c2nc(-c3cccc(C(=O)O)c3)cs2)cc1 (stereo not given)
 : -2.0%, -0.5
- CC(C)C[C@@H](CN1CCC[C@H]1CN1C(=O)C(=O)NC[C@@H]1Cc1ccc(O)cc1)N1C[C@H](Cc2ccccc2)N(CCc2ccccc2)C(=O)C1=O
 : 1.2%, -0.4
- OC(c1cccc(Cl)c1)c1nc(-c2ccc(F)c(Cl)c2)cs1 (stereo not given)
 : -2.1%, -0.3
- COc1ccc(CNC(=O)C2(C)Cc3c(-c4cccc(C(N)=O)c4)ccnc3O2)cc1OC (stereo not given)
 : -5.9%, -0.6
- C=CCNc1nc2cc(-c3cccc(NC(C)=O)c3)sc2c(=O)n1C
 : -24%, -0.1
- COc1ccc(-c2noc(-c3csc([C@@H]4C[C@H](O)[C@@H](CO)O4)n3)n2)cc1OC
 : -3.1%, -0.5
- O=C(NCc1ccccc1F)Nc1nnc([C@@H]2C[C@H](O)[C@@H](CO)O2)s1
 : -0.3%, -0.4
- O=C1c2ccccc2C(c2nnnn2-c2ccc3c(c2)OCCO3)N1CCc1c[nH]c2ccccc12 (stereo not given)
 : 0.2%, -0.2
- CCOC(=O)Cc1ccc(Nc2nc(NCc3ccccc3)nc3ccsc23)cc1
 : -9.5%, 2.2
- CCCCC(=O)N(C)c1c(C)nc2ccc(C(=O)NCCOc3ccc(OC)cc3)cn12
 : -12%, -0.8
- c1ccc(CNn2nnc3ccccc32)cc1
 : 1.9%, -0.6
- O=C(C[N+]12CCCc3cccc(c31)CCC2)c1ccccc1
 : -30%, 0.2
- CC(O)(c1ccc(F)c(F)c1)c1nc(-c2ccc3ccccc3c2)cs1 (stereo not given)
 : -5.6%, 1.6
- CCc1nc2ccc(C(=O)N(C)Cc3ccccc3)cn2c1N(CC)CCN(C)C
 : -5.8%, -0.4
- COc1ccc(CCNC(=O)Nc2ccc3c(c2)c(=O)n(C)n3CC=C(C)C)cc1OC
 : 5.1%, 0.0
- C[C@@H](c1ccccc1)N1C[C@H](COCc2ccccc2)Oc2cc(N3CC[C@H](O)C3)ccc2S1(=O)=O
 : -21%, -0.7
- O=C(NCc1ccccc1)c1cc(C2COCCN2C(=O)c2ccccc2)on1 (stereo not given)
 : 1.4%, -0.4
- CCOC(=O)N1CCN(C(=O)C[C@@H]2C[C@@]3(C(=O)OC)CCCCC=C3N(Cc3ccccc3)C2=O)CC1
 : 0.2%, -0.6
- Cc1ccc(S(=O)(=O)N2CCN(c3nc(-c4cncnc4)nc4ccccc34)CC2)cc1
 : 1.0%, -0.5

This is a subset. The share of hits here may be higher or lower than overall.
